Compound activity: PubChem, National Center for Advancing Translational Sciences (NCATS)
AmpC nodet inh: inhibitors of E. coli AmpC beta-lactamase without detergent; AmpC nitrocefin hydrolysis, absorbance 480 nm, no detergent; potencies from a single point are estimates; Potency, µM (series often up to 28.7 µM), for the others: at the top dose activity change, negative = inhibition; 71,000 tested, 1.8% active; AID 585; active = falling curve, for most hits resting on a single point; inconclusive = weak or doubtful change; inactive = flat or rising curve; further: % of control where 0% means no effect; about half of the hits show no inhibition at the top dose; a quarter of the inactives give rising signals
Target sequence (P00811 whole entry, looked up): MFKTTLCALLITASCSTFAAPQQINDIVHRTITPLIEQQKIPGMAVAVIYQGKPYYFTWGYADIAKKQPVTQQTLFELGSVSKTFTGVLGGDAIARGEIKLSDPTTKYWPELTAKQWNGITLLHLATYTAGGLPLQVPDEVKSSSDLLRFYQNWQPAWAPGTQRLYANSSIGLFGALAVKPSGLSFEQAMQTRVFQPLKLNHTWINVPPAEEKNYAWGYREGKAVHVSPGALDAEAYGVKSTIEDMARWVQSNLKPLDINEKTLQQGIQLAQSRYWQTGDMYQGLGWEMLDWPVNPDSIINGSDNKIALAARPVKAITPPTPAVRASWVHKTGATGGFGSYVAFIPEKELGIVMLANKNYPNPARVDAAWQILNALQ
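Enzyme, pH 7.0 phosphate. Compound titrations were pre-incubated with AmpC for 15 min at room temperature before nitrocefin (stock 800 uM) addition; product formation was recorded at 480 nm every 20 s for 4 min.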
* = called active by the depositor; ? = inconclusive; & = joins results of further samples; [ ] = another dose, or the depositor's remark. Potency means the concentration at half of the fitted maximal effect. These rows are one share of the data, so the mix of outcomes need not match the whole.

SMILES	AmpC nodet inh
COc1ccc(C(O)c2nc3ccccc3s2)cc1 (centres undefined)	-11%
COCCn1nnnc1SCC(=O)N1CCCCC1	2%
C[C@H](O)[C@H](O)[C@@H]1CNc2nc(N)[nH]c(=O)c2N1	-4%
CSc1nsc(SC)c1C(=O)OCC(F)(F)F	-4%
O=C(Cc1cccs1)Nc1ccc(Cl)cc1	-24%
CC(C)CN(Cc1cc2ccccc2[nH]c1=O)C(=O)c1cccnc1	6%
CCOC(=O)c1sc(NS(=O)(=O)c2ccc(NC(C)=O)cc2)nc1C	-10%
O=C(c1ncc[nH]1)c1ccccc1C(=O)N1CCOCC1	-9%
Cc1ccccc1S(=O)(=O)Cc1ccc(C(=O)N2CCN(c3ccc(F)cc3)CC2)o1	103%
COc1ccc(-c2oc3ncnc(NCCCN4CCOCC4)c3c2-c2ccc(OC)cc2)cc1	128%
COC(=O)c1cc2c(cc1Cl)SC(=NCCCN1CCOCC1)NS2(=O)=O	64%
C=CCNC(=O)c1c(N)n(-c2cccc(S(N)(=O)=O)c2)c2nc3ccccc3nc12	96%
Cc1cc(C)n2nc(C(=O)OCCOc3cccc(Br)c3)nc2n1	95%
COc1ccc(OC)c(NC(=O)CSc2nnc(Cc3cccn3C)n2-c2ccc(F)cc2)c1	143%
O=C(NCc1cccs1)NC1CCCCC1	-6%
CCOCCCNC(=O)Cn1ncc2c(=O)oc3ccccc3c21	4µM*[single pt active]
COC(=O)c1[nH]c2ccc(C)cc2c1NC(=O)CCN1CCN(Cc2ccc3c(c2)OCO3)CC1	115%
COc1cccc(OCC(O)CN2CCC(C)CC2)c1 (centres undefined)	1%
CCc1oc2ccccc2c1C(=O)c1cc(Br)c(O)c(Br)c1	-27%[5.75 µM]
COc1ccc(-c2cc(C(=O)O)[nH]n2)cc1OC	2%
COc1ccc(NC(=O)N2CC[C@@]3(CCCN(C(=O)c4c(C)noc4C)C3)C2)cc1	9%
CN(C)CCN1C(=O)c2oc3ccc(Cl)cc3c(=O)c2C1c1cccc(Br)c1 (centres undefined)	49%
COc1ccc(Cl)cc1NC(=O)CN(C)C(C)C(=O)NCC1CCCCC1 (centres undefined)	128%
COc1ccc(-c2cc(-c3ccc(OC)cc3)[nH]n2)cc1	34%
C(=N\c1nc2ccccc2n1CCN1CCCCC1)/c1ccc2c(c1)OCO2	16%
O=C(NC1CCCC1)c1nc2c(nnn2Cc2cccc(Cl)c2)c(=O)[nH]1	11%
O=C(CCC1CCCCC1)Nc1ccccc1O	-14%
COC(=O)c1nnn(-c2nonc2N)c1CSCCO	7%
CCOC(=O)CSc1nnc(-c2ccc(S(=O)(=O)N3CCOCC3)cc2)n1-c1ccccc1	124%
CN(C)c1ccc(NC(=O)CN2C(=O)CC(c3ccccc3)=Nc3ccccc32)cc1	17%

Rewritten with each value named: entries from further up.
CSc1nsc(SC)c1C(=O)OCC(F)(F)F
  AmpC nodet inh: -4%
O=C(Cc1cccs1)Nc1ccc(Cl)cc1
  AmpC nodet inh: -24%
CC(C)CN(Cc1cc2ccccc2[nH]c1=O)C(=O)c1cccnc1
  AmpC nodet inh: 6%
CCOC(=O)c1sc(NS(=O)(=O)c2ccc(NC(C)=O)cc2)nc1C
  AmpC nodet inh: -10%

Following part.
SMILES	AmpC nodet inh
CN(CP(=O)(O)CN(C)S(C)(=O)=O)S(C)(=O)=O	-14%
CCN(CC)CCCNC(=O)c1cc2c(-c3ccc(Cl)cc3)nn(C)c2s1	4µM*[single pt active]
OC(COc1ccc(OCc2ccccc2)cc1)CN1CCCCC1 (centres undefined)	27%
CCOc1ccc(OCCSc2nnnn2C2CCCCC2)cc1	16%
O/N=C/c1cccn1-c1ccc(O)cc1	-5%
CN(C)c1ccc(CNC(=O)[C@@]2(C)C=C[C@@H](Cc3ccccc3)N2C)cc1	21%
CC1CN(C(=O)N[C@@H](Cc2ccccc2)C(=O)O)CC(C)O1 (some centres undefined)	-6%
CC(=O)c1cccc(NC(=O)c2ccncc2)c1	-1%
CCCCCCCCCCCCCCCC(=O)NCCO	35%&-3%
CCOC(=O)c1cc(C)[nH]c(=S)c1C#N	-2%
c1ccc2c(c1)Cc1cc3ccccc3nc1-2	40%
O=C(c1ccc(COc2ccc3c(c2)CCC3)o1)N1CCN(c2ccccc2)CC1	43%
CC(=O)Oc1ccc(C(=O)O)cc1OC(C)=O	-2%
Clc1ccc(C2CC(c3ccccc3)Nc3ncnn32)cc1 (centres undefined)	69%
Cc1cc2c(=O)[nH]c(N)nc2nc1C	8%[5.75 µM]
COCC(=O)N1CCC[C@@]2(CCN(C(c3ccccc3)c3ccccc3)C2)C1	125%
CN(C)c1ccccc1C(=O)c1ccccc1N(C)C	6%
CCOC(=O)CSc1nnc2c(n1)C1(C)CCC2C1(C)C (centres undefined)	16%
Cc1ccccc1-c1nc(CN2CCC(C(=O)N3CCC(C(N)=O)CC3)CC2)c(C)o1	52%
O=C(CSc1nnc(-c2ccncc2)n1C1CCCCC1)Nc1cccc(O)c1	34%
O=C(c1cc(S(=O)(=O)N2CCOCC2)ccc1F)N1CCCc2ccccc21	27%
CCCCC(=O)Nc1cccc(-c2nnc(-c3ccccc3)o2)c1	12%
CCC(Sc1ccc2nnc(-c3cccnc3)n2n1)C(=O)O (centres undefined)	3%
CC(C)CCNC(=O)COc1ccc2c3c(c(=O)oc2c1)CCC3	-6%
Cc1ccc(-c2nc(CS(=O)CC(=O)NCc3ccccc3)c(C)o2)cc1 (centres undefined)	84%
O=C(c1ccccc1)N1CCN(S(=O)(=O)N2CCCCC2)CC1	12%
O=C(CCNC(=O)c1ccc(Br)o1)NC1CCCC1	-2%
COc1ccc(CNc2ncncc2-c2ccc(C(=O)N(C)C)cc2)c(OC)c1	73%
CCCn1cc(SCC(N)=O)c2ccccc21	14%
COc1cc2ncnc(Nc3cccc(Br)c3)c2cc1OC	95%
CC(C)(C)NC(=O)Cn1nnnc1-c1nonc1N	-4%
Cc1scc(C(=O)N2CCN(S(C)(=O)=O)CC2)c1-c1ccccc1	15%
C1CCC(Nc2nnnn2C2CCCCC2)CC1	-2%
COc1ccc(N(CC(=O)NCc2ccco2)S(C)(=O)=O)cc1Cl	-2%
CCCCCCS(=O)[C@H]1CS(=O)(=O)C[C@@H]1S(=O)CCCCCC (some centres undefined)	29%
Cc1nc(NCc2ccc3c(c2)OCO3)c2nnn(Cc3ccccc3)c2n1	20%
O=C(Nc1ncccn1)C1CCCN1S(=O)(=O)c1ccc(Cl)c(Cl)c1 (centres undefined)	4%
CN1[C@@H]2CC(OC(=O)[C@@H](CO)c3ccccc3)C[C@@H]1[C@H]1O[C@H]12 (some centres undefined)	-9%[5.75 µM]
CCOC(=O)c1cc(NC(=O)OC)c(C)nc1C	7%
COc1cc2sc(C)nc2c2sccc12	12%
O=C(Nc1ccc2nc(-c3ccco3)[nH]c2c1)c1cccs1	-20%
COc1ccc(N2C(=O)NC3CC2(C)Oc2ccc(Br)cc23)cc1OC (centres undefined)	94%
c1ccc(Oc2nc(NCc3ccco3)nc(NCc3ccco3)n2)cc1	-12%
CCn1c(CNC(=O)c2ccco2)nnc1SCC(=O)Nc1cc(C(F)(F)F)ccc1Cl	52%
CNc1cc(-c2ccccc2C)ncn1	-3%
O=C1COc2ccc(C(=O)COC(=O)CCc3ccc(S(=O)(=O)N4CCOCC4)cc3)cc2N1	50%
O=S(=O)(c1ccccc1)N1CCC2(CCCN(c3ccccn3)C2)CC1	21%
CCOc1ccc(C(C)(C)C)cc1S(=O)(=O)N1CCOCC1	52%
FC(F)(F)c1cc(-c2ccccc2)nc(N2CCCCC2)n1	-8%
CCCC(=O)Nc1nn(C)c2nc3c(C)cccc3cc12	-5%

(further entries)
SMILES	AmpC nodet inh
Cc1cccc(CNc2ncnc3ccc(-c4ccc5c(c4)OCO5)cc23)c1	?
CC(=O)c1ccc(NC(=O)Nc2ncn(Cc3cccc(C)c3)n2)cc1	8%
CCCn1cnc2c(c1=O)c1nc3ccccc3nc1n2CCC1=CCCCC1	44%
Cc1ccc(SCc2cc(=O)[nH]c(N3CCCCC3)n2)cc1	10%
O=C(NCc1ccco1)C1OCCc2ccccc21 (centres undefined)	6%
Cc1ccc(C)n1-n1c(C)nc2scc(-c3cccs3)c2c1=O	16%
COc1ccc(C[C@@H]2c3cc(OC)c(OC)cc3CC[N@+]2(C)CCC(=O)OCCCCCOC(=O)CC[N@@+]2(C)CCc3cc(OC)c(OC)cc3[C@H]2Cc2ccc(OC)c(OC)c2)cc1OC	65%[12.8 µM]
COc1ccc2[nH]cc(C(=O)CN3CCCCC3)c2c1	-25%
CCOC(=O)CCN(Cc1cccs1)S(=O)(=O)c1ccc(Cl)cc1	17%
CSc1nc(C)cc(Nc2ccc(O)c(CN3CCOCC3)c2)n1	-1%[5.75 µM]
Cc1ccc2cc3cc(C(=O)N4CC(C)CC(C)C4)oc3nc2c1 (centres undefined)	71%
CCN(CC)CCCN1C(=O)C(O)=C(C(=O)c2ccco2)C1c1cc(OC)ccc1OC (centres undefined)	-6%
CC(=O)c1c(C(C)=O)c(C)n(NC(=O)c2cccnc2)c1C	10%
O=C1CCC(=O)N1c1ccc(CSc2nnnn2C2CCCCC2)cc1	56%
COCCNC(=O)Cn1cnc2ccc(S(=O)(=O)N3CCC(C)CC3)cc2c1=O	18%
Cc1cccc2cc(CN(Cc3cccnc3)C(=O)c3ccncc3)c(=O)[nH]c12	0%
CC1(C)Cc2cccc(OCC(=O)N3CCN(S(=O)(=O)c4ccccc4F)CC3)c2O1	101%
O=C(CN1CCN(c2nc(-c3ccc(Cl)cc3)cs2)CC1)NCc1ccco1	95%
CC(C)(C)OOC(=O)c1ccccc1	0%
N#C/C=C/C#N	0%
CC1CCN(CCc2nc3cc(NC(=O)Nc4ccccc4)ccc3n2C)CC1	-17%
COc1cc(C(=O)Nc2nccs2)c(Br)c(OC)c1OC	-4%
COc1ccc(S(=O)(=O)N2CCN(S(=O)(=O)c3ccc4c(c3)OCCO4)CC2)cc1C	46%
COc1cc(OC)c(C2C(C#N)=C(N)OC3=C2C(=O)CC(C)C3)cc1OC (centres undefined)	15%
Cc1cc2cc(CCNC(=O)CC(C)(C)C)c(=O)[nH]c2cc1C	38%
O=C(NC12CCC(O)C(SC1)/C2=N/O)c1ccccc1 (centres undefined)	-8%
COc1ccc(NC(=O)C2CC(c3ccc(OC)c(OC)c3)=NO2)cc1OC (centres undefined)	61%
Cc1cc(N2CCN(c3nc4ccccc4s3)CC2)n2ncnc2n1	114%
CCCCOc1ccc(-c2nnn(CC(=O)Nc3ncc(CC(=O)OCC)s3)n2)cc1	33%
Cc1ccc2nc(-c3ccc(N)cc3)sc2c1S(=O)(=O)O	5%
Cn1c(SCCS(=O)(=O)c2ccc(Cl)cc2)nnc1-c1ccccc1	11%
Cc1ccc(CN2CCN(C)CC2)c(C)c1	-7%
COc1ccc(CCN2CC3=C(C2=O)C(c2ccccc2)NC(=O)N3C)cc1OC (centres undefined)	30%
CCOC(=O)Oc1ccc2oc(=O)cc(C)c2c1	-4%
CC1CCCN(C(=O)c2cc(F)c(F)cc2Cl)C1 (centres undefined)	11%
C(/CCc1ccccc1)=N\n1cnnc1	-10%
CCN(CCNC(=O)C1CCCN(S(=O)(=O)c2cnc[nH]2)C1)c1ccccc1 (centres undefined)	4µM*[single pt active]
O=C(O)c1c2c(nc3ccc(S(=O)(=O)N4CCC(C(=O)NC5CCCC5)CC4)cc13)CCCCC2	13%
CCOC(=O)C1CCN(Cc2ccc(N(C)C)cc2)CC1	9%
Cc1ccc(OC(=O)c2ccc(C)c(C)c2)cn1	16%
O=C(O)CCCCCNc1nc2ncn(Cc3ccccc3)c2c(=O)[nH]1	-10%
Nc1nnc(SCC(=O)NC2CCCCC2)n1-c1ccccc1	6%
COCC(=O)N1CCC2(CCCN(c3ccccc3)C2)CC1	109%
Cc1ccc(-c2nc(COC(=O)c3c(C)noc3C)cs2)cc1	17%
COc1ccc(C(=O)N(Cc2nc(-c3ccc(C)cc3)no2)C(C)C)cc1OC	116%
CCCCN(CC)CCNC(=O)Cn1cnc2sc(C)c(S(=O)(=O)N3CCOCC3)c2c1=O	-15%
Cc1cc(C)c2c(-n3cccc3)c(C(=O)O)sc2n1	-7%
Cc1ccc2c(c1)NC(=O)C(CC(=O)NCCCN1CCCC1)O2 (centres undefined)	4µM*[single pt active]
CCOc1ccc(S(=O)(=O)n2cnc3cc(C)c(C)cc32)cc1	28%
Cc1oc2nc(SCC(=O)N3CCCCC3)nc(N)c2c1C	19%

Next section
SMILES	AmpC nodet inh
COc1ccc(CCCC(=O)O)c(C)c1	0%
CC(=O)Cc1nsc(NC(=O)c2ccc(-c3cccc(C(F)(F)F)c3)o2)n1	8%
CCOC(=O)N1CCC(NC(=O)CN2C(=O)CSc3ncccc32)CC1	-13%
CC(NC(=O)c1cccnc1)c1ccc2c(c1)OCO2 (centres undefined)	4%
CCCc1cc(C(N)=O)c(NC(=O)c2ccco2)s1	-7%
COc1ccc(NC(=O)Nc2cc(C)ccn2)cc1	-14%
O=C(COc1ccccc1)NCc1ccc2c(c1)OCO2	-2%
Cc1ccc2c(c1)C1CN(C)CCC1N2C(=O)Nc1ccc(Cl)cc1 (centres undefined)	22%
